pPAFAH inh = pPAFAH enzyme inhibitors, primary screen, biochemical, fluorescence polarization, human; Platelet-activating factor acetylhydrolase (Homo sapiens), Q13093; recombinant pPAFAH, FP-rhodamine probe fluorescence polarization; inhibition, % at 3.39 µM; actives 1.5% (n = 330,000); AID 463082, 2010;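 active means inhibition above the mean inhibition across the screen plus 3 SD, cut at about 25% in these data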;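 further: inhibitors block binding of the rhodamine activity-based probe so polarization drops; 0% = enzyme with DMSO and 100% = wells lacking pPAFAH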
PAFAH1B3 FP inh = PAFAH1B3 enzyme inhibitors, primary screen, biochemical, fluorescence polarization, human; Platelet-activating factor acetylhydrolase IB subunit alpha1 (Homo sapiens), Q15102; recombinant PAFAH1B3, FP-rhodamine probe; inhibition, % at 3.39 µM; actives 0.28% (n = 340,000);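 active means inhibition above the screen-wide average of all tested compounds plus 3 SD, cut at about 25% in these data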;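 further: 0% = enzyme with DMSO only and 100% = wells lacking PAFAH1B3 protein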
Target sequence (Q15102 whole entry, looked up): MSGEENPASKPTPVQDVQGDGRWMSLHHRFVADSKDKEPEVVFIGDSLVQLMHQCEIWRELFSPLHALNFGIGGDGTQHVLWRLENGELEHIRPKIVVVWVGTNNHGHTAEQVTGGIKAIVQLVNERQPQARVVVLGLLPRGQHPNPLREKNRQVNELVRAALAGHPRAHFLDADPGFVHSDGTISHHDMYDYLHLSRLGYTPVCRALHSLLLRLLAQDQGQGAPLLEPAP
LYPLA2 inh = LYPLA2 inhibitors, primary screen, counter-screen for PME1 inhibitor project, biochemical, fluorescence polarization, FP-Rh probe ABPP | AID 2177, 2009 | actives 0.38% (n = 320,000) | Acyl-protein thioesterase 2 (Homo sapiens), O95372 | recombinant LYPLA2 | inhibition, % at 5.9 µM;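 active means inhibition above the screen-wide mean plus 3 SD, limit set per campaign, cut at about 26% in these data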;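 further: 0% = LYPLA2 with DMSO and 100% = wells lacking LYPLA2 enzyme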
Target sequence (O95372 whole entry, looked up): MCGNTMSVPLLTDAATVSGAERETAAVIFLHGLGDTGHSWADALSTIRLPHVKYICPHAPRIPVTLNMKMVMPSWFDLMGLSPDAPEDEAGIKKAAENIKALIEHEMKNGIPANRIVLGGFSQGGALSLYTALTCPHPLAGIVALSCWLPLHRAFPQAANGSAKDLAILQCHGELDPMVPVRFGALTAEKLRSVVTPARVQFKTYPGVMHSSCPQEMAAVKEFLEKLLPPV
PAD4 inh = human PAD4 inhibitors, primary screen, biochemical, fluorescence polarization, 1536-well format. Protein-arginine deiminase type-4 (Homo sapiens), Q9UM07. recombinant PAD4, RCA probe fluorescence polarization. inhibition, % at 6.36 µM. actives 0.41% (n = 330,000);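 active means percent inhibition above a cutoff equal to the mean of all tested compounds plus 3 SD, cut at about 15% in these data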;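 further: 0% = PAD4 with RCA probe and DMSO and 100% = probe without PAD4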
PREPL inh = PREPL enzyme inhibitors, primary screen, biochemical, fluorescence polarization; actives 0.68% (n = 320,000); inhibition, % at 5.96 µM; Prolyl endopeptidase-like (Homo sapiens), Q4J6C6; recombinant PREPL, fluorescence polarization activity-based probe; in the data active means inhibition above about 43%;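 further: 0% = enzyme with DMSO and 100% = wells lacking enzyme; many of its hits are not listed in these tables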
LYPLA1 inh = LYPLA1 inhibitors, primary screen, counter-screen for PME1 inhibitor project, biochemical, fluorescence polarization, FP-Rh probe ABPP | Acyl-protein thioesterase 1 (Homo sapiens), O75608 | recombinant LYPLA1 | inhibition, % at 5.9 µM | actives 0.16% (n = 320,000) | AID 2174, 2009;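 active means inhibition above the mean of all tested compounds plus 3 SD, set per campaign, cut at about 14% in these data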;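 further: inhibitors block serine hydrolase probe labeling of LYPLA1 so polarization falls; 0% = enzyme with DMSO and 100% = wells lacking LYPLA1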
Target sequence (O75608 whole entry, looked up): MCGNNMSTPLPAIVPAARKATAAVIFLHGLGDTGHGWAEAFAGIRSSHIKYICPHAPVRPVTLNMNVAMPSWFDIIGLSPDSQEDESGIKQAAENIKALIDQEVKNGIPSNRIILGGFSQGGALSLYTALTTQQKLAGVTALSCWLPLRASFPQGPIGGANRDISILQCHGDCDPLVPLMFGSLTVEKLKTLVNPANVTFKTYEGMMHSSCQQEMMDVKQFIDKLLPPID
PME-1 inh = PME-1 inhibitors via competitive probe labeling, primary screen, biochemical, fluorescence polarization, FP-Rh probe, HTS; recombinant PME-1; inhibition, % at 5.9 µM; actives 0.53% (n = 320,000); AID 2130, 2009;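 active means inhibition above the campaign mean of all compounds plus 3 SD, cut at about 26% in these data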;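 further: competitive labeling of PME-1 active site by serine hydrolase directed probe; 0% = PME-1 with DMSO and 100% = wells lacking PME-1 enzyme; inhibitors block probe labeling so polarization falls and inhibition rises; many of its hits are not listed in these tables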
Target sequence (Q9Y570 whole entry, looked up): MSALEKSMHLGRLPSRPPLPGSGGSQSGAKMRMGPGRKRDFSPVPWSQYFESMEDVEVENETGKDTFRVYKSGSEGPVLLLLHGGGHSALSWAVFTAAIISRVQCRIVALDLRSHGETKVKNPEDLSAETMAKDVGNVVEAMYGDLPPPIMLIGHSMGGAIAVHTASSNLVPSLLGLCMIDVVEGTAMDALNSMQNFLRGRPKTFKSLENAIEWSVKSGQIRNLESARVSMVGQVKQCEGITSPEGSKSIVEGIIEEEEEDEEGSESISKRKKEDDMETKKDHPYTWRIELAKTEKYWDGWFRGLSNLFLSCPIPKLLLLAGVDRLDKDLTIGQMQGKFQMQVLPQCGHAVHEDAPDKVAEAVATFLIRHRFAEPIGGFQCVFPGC
GSTO1 counter = inhibitors of recombinant GSTO1, primary screen, counter-screen for RBBP9 inhibitor project, biochemical, fluorescence polarization | AID 1974, 2009 | actives 1.1% (n = 300,000) | inhibition, % at 5.96 µM | Glutathione S-transferase omega-1 (Homo sapiens), P78417 | activity-based probe fluorescence polarization;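 active means inhibition above the campaign mean inhibition plus 3 SD, cut at about 35% in these data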;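 further: 0% = GSTO1-1 with DMSO and 100% = wells lacking GSTO1-1 enzyme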
Starred values were filed as active, the others as inactive; . = not tested or not shown.

SMILES	pPAFAH inh	PAFAH1B3 FP inh	LYPLA2 inh	PAD4 inh	PREPL inh	LYPLA1 inh	PME-1 inh	GSTO1 counter
CCc1ccc([C@@H]2CC=C(C(=O)O)[C@H](c3ccccc3F)N2S(=O)(=O)c2ccc(C)cc2)cc1	-3	-1	-10	-7	-10	-5	-7	-13
C=CCN(c1ccccc1)S(=O)(=O)c1ccc2c(c1)NC(=O)C(C)S2 (configuration not stated)	5	2	-2	-4	3	-3	2	-2
O=C(CN1CCN(S(=O)(=O)c2ccc(Br)cc2)CC1)Nc1ccccc1C(=O)c1ccccc1	0	2	0	-1	7	0	-4	10
COc1ccc([C@@H]2CC=C(C(=O)O)[C@H](c3ccc(Cl)cc3)N2S(=O)(=O)c2ccc(Cl)cc2)cc1	3	-2	6	4	19	-2	3	18
CC(C1CC2CCC1C2)n1c(-c2cccs2)n[nH]c1=S (configuration not stated)	7	0	-2	3	18	-1	2	0
Cc1ccc2c(CN(C)Cc3ccc(Cl)cc3)cc(=O)oc2c1	2	7	-5	-3	-53	-5	-1	-3
CC1CCN(S(=O)(=O)c2ccc(C(=O)Nc3nnc(-c4ccccn4)o3)cc2)CC1	5	4	2	-3	3	0	-2	-10
O=C(O)CCC(=O)N1CCc2cc(S(=O)(=O)N3CCC(Cc4ccccc4)CC3)ccc21	19	-1	3	-1	5	-2	3	1
Cc1ccc(NC(=O)CSc2nc(CSc3ccc(C)cc3)cc(=O)[nH]2)cc1	17	-1	-11	0	3	-4	-10	-6
Cc1ccc(S(=O)(=O)NCCC(=O)Nc2ccc(C)cc2C(=O)c2ccccc2)cc1	8	9	-4	1	-6	0	0	-1
CCCCOc1ccc(C(=O)OCC(=O)N2CCCCCC2)cc1	10	10	.	-2	8	.	.	.
CC(C)(C)c1ccc(C(CC(=O)O)NC(=O)CCCc2ccccc2)cc1 (configuration not stated)	11	1	3	3	7	-1	-3	2
CCOC(=O)c1ccccc1NC(=O)COC(=O)CSc1ccccc1	20	4	-4	-3	9	-1	0	-7
COc1ccc(Cc2nnc(NS(=O)(=O)Cc3ccccc3)s2)cc1	7	1	1	3	5	2	-3	-2
CCC(C)NS(=O)(=O)c1ccc(S(=O)(=O)N2CCCC3(CCCCC3)C2)cc1 (configuration not stated)	6	-5	-10	1	16	-3	0	2
O=C(NC1CS(=O)(=O)CC1NCc1ccco1)c1ccccc1 (configuration not stated)	9	0	5	5	-9	1	2	-1
NC(=S)NN=C1CCC(C2CCCCC2)CC1 (configuration not stated)	.	1	.	.	.	.	.	.
Cc1cc(NC(=O)CSc2nnc(CNC(=O)c3ccc(C(C)(C)C)cc3)o2)no1	10	8	5	4	9	-3	1	14
O=C(O)c1ccc(S(=O)(=O)N(CCc2ccccc2)Cc2ccc(Cl)cc2)cc1	3	-1	-4	-2	-20	-2	-12	0
O=C(O)C1=CC[C@@H](c2ccc(Cl)cc2)N(S(=O)(=O)c2ccc(Cl)cc2)[C@H]1c1cccc(Cl)c1	9	-5	-7	-11	-2	-6	-7	-186

Profiles, looked up by structure. Screens in order: pPAFAH inh | PAFAH1B3 FP inh | LYPLA2 inh | PAD4 inh | PREPL inh | LYPLA1 inh | PME-1 inh | GSTO1 counter
Results for Cc1ccc(NC(=O)CSc2nc(CSc3ccc(C)cc3)cc(=O)[nH]2)cc1 → 17 | -1 | -11 | 0 | 3 | -4 | -10 | -6
Results for NC(=S)NN=C1CCC(C2CCCCC2)CC1 (configuration not stated) → . | 1 | . | . | . | . | . | .

Exported with two lines to a compound: part of the list above.
Values run as follows: pPAFAH inh | PAFAH1B3 FP inh | LYPLA2 inh | PAD4 inh | PREPL inh | LYPLA1 inh | PME-1 inh | GSTO1 counter
> CCCCOc1ccc(C(=O)OCC(=O)N2CCCCCC2)cc1
  10 | 10 | . | -2 | 8 | . | . | .
> COc1ccc(Cc2nnc(NS(=O)(=O)Cc3ccccc3)s2)cc1
  7 | 1 | 1 | 3 | 5 | 2 | -3 | -2

Later entries
SMILES	pPAFAH inh	PAFAH1B3 FP inh	LYPLA2 inh	PAD4 inh	PREPL inh	LYPLA1 inh	PME-1 inh	GSTO1 counter
O=C(NNC(=O)C1CCN(S(=O)(=O)c2ccc(Cl)cc2)CC1)c1ccncc1	8	10	-3	-1	9	-4	5	6
N#CCOC(=O)[C@H](Cc1c[nH]c2ccccc12)NS(=O)(=O)c1ccc(Cl)cc1	22	2	3	-12	7	6	5	5
COc1cccc(CNc2cc(CSc3ccc(Cl)cc3)nc(C)n2)c1	11	-6	-4	-6	-57	-4	0	2
O=C(O)c1ccc(-n2nnnc2SCc2cccc(Br)c2)cc1	9	15	-1	2	-5	-1	-5	3
O=C(O)c1cccc(S(=O)(=O)Nc2ccccc2Cc2ccccc2)c1	-1	0	0	1	-2	-1	-3	14
Cc1ccc(/C=N/NC(=O)CN2CCN(S(=O)(=O)c3ccc(Br)cc3)CC2)s1	3	11	-5	-6	0	-4	8	3
COC(=O)c1scc(C)c1NC(=O)CSc1ccc(Cl)cc1	-3	5	3	-1	9	2	-5	-1
Cn1c(N)c(C(=O)COC(=O)C2(c3cccc(F)c3)CCCC2)c(=O)n(C)c1=O	0	3	0	-5	-37	-2	6	0
Cc1ccc(C(=O)Nc2nc(=O)n(C(=O)c3ccccc3C)s2)cc1	5	-2	3	-5	-8	0	1	2
CCn1c(CSCc2ccc(Cl)cc2)n[nH]c1=S	3	0	1	1	2	-2	2	-2
O=C(CSc1nnc(-c2ccco2)n1-c1ccccc1)Nc1c(Cl)cc(Cl)cc1C(=O)O	2	6	.	10	3	.	.	.
O=C(CN1C(=O)C2CC=CCC2C1=O)Nc1nnc(SCc2ccc(Cl)cc2)s1 (configuration not stated)	21	7	11	2	-1	1	-3	4
S=c1[nH]nc(CSCc2ccc(Cl)cc2Cl)n1-c1ccccc1	16	1	2	0	16	2	6	-3
O=C(NNC(=O)C12CC3CC(CC(Br)(C3)C1)C2)c1ccccc1F	-5	-2	.	-6	10	.	.	.
N#Cc1cc2c(nc1SCC(=O)Nc1sc3c(c1C#N)CCC3)CCCCC2	13	4	0	-6	11	-4	-5	20
CCOC(=O)c1cnn(-c2nc(-c3ccccc3)cs2)c1C(F)(F)F	3	5	12	4	-1	2	-5	2
OC(c1ccccc1)(C1CCCCC1)C(CN1CCOCC1)c1ccccc1 (configuration not stated)	5	1	-3	0	13	0	2	-5
Cc1c(NC(=O)C2(c3ccc(Cl)cc3)CCCC2)c(=O)n(-c2ccccc2)n1C	-1	1	1	3	-5	3	-1	1
Cc1ccc(SCc2nc(-c3ccncc3)no2)cc1	4	0	1	-7	2	1	3	0
COCCCNC(=O)CSc1ccc(Cl)cc1	1	7	0	0	5	0	-6	-3
Cc1ccc(SCC(=O)OCC(=O)NC2CCCCCCC2)cc1	19	5	-2	3	17	-2	2	-3
O=C(Nc1ccccc1C(=O)NC(Cc1c[nH]c2ccccc12)C(=O)O)c1ccccc1 (configuration not stated)	8	7	3	1	2	-2	4	-10
CCSc1nnc(NC(=O)CSc2nnc(CNC(=O)c3ccc(OC)cc3)o2)s1	5	8	5	3	5	-1	-8	-3
CC[C@]1(C(=O)OC)[C@H]2C(=O)N(C)C(=O)[C@H]2[C@H]2CN=C(SCc3ccc(Cl)cc3)N21	2	9	.	3	.	.	.	.
COc1ccc2oc(=O)cc(CN(C)Cc3ccccc3)c2c1	13	4	7	1	8	-4	8	0
Cc1ccc(/C=N/N(C)S(=O)(=O)c2ccc(C)cc2)cc1	-2	0	-2	4	-45	-5	-6	4
CC1CCN(S(=O)(=O)c2ccc(F)c(C(=O)O)c2)CC1	1	7	-5	-12	1	-3	3	3
CC12CC3CC(C)(C1)CC(C(=O)NC(=S)N1CCOCC1)(C3)C2	-1	8	-1	1	9	0	7	-6
Cc1ccnc(NS(=O)(=O)c2ccc(NS(=O)(=O)c3ccc(Br)cc3)cc2)n1	8	8	5	0	-3	2	3	0
O=C(O)c1cc(Sc2ccc(Br)cc2)nc2ccccc12	.	5	.	.	.	.	.	.
COc1ccc(CNC(=O)C2CC(c3ccc(F)cc3)=NO2)cc1 (configuration not stated)	2	10	5	3	8	0	2	3
O=C(NCC1CCCO1)c1ccc(COc2ccc(Br)cc2)cc1 (configuration not stated)	13	6	14	-2	12	-1	-6	2
CCSc1nc2c(c(=O)[nH]1)C(c1ccncc1)C(C(=O)OC(C)C)=C(C)N2 (configuration not stated)	1	5	3	-2	8	2	-4	0
COc1ccc2c(c1OC)C(=O)OC2Nc1nc(-c2ccc([N+](=O)[O-])cc2)cs1 (configuration not stated)	1	4	6	2	16	3	-3	9
O=C(COC(=O)CNC(=O)c1cccc([N+](=O)[O-])c1)NCc1ccco1	4	1	2	-5	-5	-1	2	1
CC(Sc1ccccc1)C(=O)N1CCN(S(=O)(=O)c2ccc(Cl)cc2)CC1 (configuration not stated)	8	-1	-5	4	15	-3	-1	8
Cc1csc2nc(CSc3ccc(Cl)cc3)cn12	5	1	-4	-4	7	-1	-3	-6
Cc1ccc(S(=O)(=O)N(C)/N=C/c2ccc(C(=O)O)cc2)cc1	4	3	2	-3	10	-2	6	10
COc1cc2c(cc1OC)CN(C(=O)COc1ccccc1C#N)CC2	.	7	.	.	.	.	.	.
O=C(CSc1ccc(Cl)cc1)NC1CCCC1	5	1	1	1	-6	1	-2	9
Cc1ccc(S(=O)(=O)N2[C@@H](c3ccccc3F)C(C(=O)O)=CC[C@H]2c2ccc(Cl)cc2)cc1	13	13	-2	2	1	0	-6	-60
CCOc1ccccc1NC(=O)COC(=O)CSc1ccc(Cl)cc1	15	11	2	4	4	-2	-1	6
O=C(Nc1nonc1-c1ccc(Cl)cc1)c1ccco1	-1	5	7	3	24	1	5	4
O=c1[nH]c2ccc(S(=O)(=O)NCc3ccccn3)cc2s1	0	6	-2	-1	-9	2	-6	0
Cc1ccc(S(=O)(=O)Nc2cccnc2Oc2ccc(Cl)cc2)cc1	6	11	-6	-1	2	-2	6	0
CCC(C(=O)NC(CC(=O)O)c1ccc(Cl)cc1)c1ccccc1 (configuration not stated)	2	14	-2	7	5	-3	2	8
CC1CCN(Cc2cc(=O)oc3cc(O)c(Cl)cc23)CC1	5	7	7	-1	11	6	2	8
CC1CCN(S(=O)(=O)c2nnc(NC(=O)COc3ccccc3)s2)CC1	5	2	-3	2	-6	-5	-5	-23
Cc1ccc(CNC(=O)C(=O)NCCC2CCCCN2S(=O)(=O)c2cccs2)cc1 (configuration not stated)	8	11	-1	2	-12	-1	3	-1

Some of these compounds in order of their number in PAFAH1B3 FP inh, largest number first:
Structure | pPAFAH inh | PAFAH1B3 FP inh | PAD4 inh | PREPL inh | PME-1 inh
Cc1ccc(S(=O)(=O)N2[C@@H](c3ccccc3F)C(C(=O)O)=CC[C@H]2c2ccc(Cl)cc2)cc1 | 13 | 13 | 2 | 1 | -6
CCOc1ccccc1NC(=O)COC(=O)CSc1ccc(Cl)cc1 | 15 | 11 | 4 | 4 | -1
O=C(Nc1nonc1-c1ccc(Cl)cc1)c1ccco1 | -1 | 5 | 3 | 24 | 5
CC1CCN(S(=O)(=O)c2nnc(NC(=O)COc3ccccc3)s2)CC1 | 5 | 2 | 2 | -6 | -5

Not all compounds are listed (hit frequency here may not be typical).
